TRPV1 potentiator = enhances activation of the human vanilloid receptor TRPV1; TRPV1-expressing cells, Fluo-8 calcium influx, capsaicin EC20 potentiation; host cell line not named in the record; control for the full effect not named in the record; AID 540277; potentiation, % at 8.33 µM; Q8NER1; hit rate 0.02% among 320,000; active means potentiation above 80%; inconclusive means 30% to 80%; inactive means below 30%; note: 0% is about no effect
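TRPV1-expressing cells were cultured overnight at 35.5C and loaded with Fluo-8 calcium dye for 40 to 90 min at room temperature. After a 10 s baseline, compound was added and calcium influx was read kinetically for 3 min (ex 480/em 520 nm).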
D2 potentiator = positive allosteric modulators of human D2 dopamine receptor. P14416. DiscoveRx D2 beta-arrestin cells, luminescence, 90 min; 100% = 57 uM dopamine signal. potentiation, % (test concentration not listed). hit rate 0.23% among 360,000; active = potentiation of 50% or more; inconclusive = 30% to 50%; inactive = 30% or less;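 note: compound concentration not given in the record; tested on top of an EC20 dose of dopamine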
Target sequence (P14416 whole entry, looked up): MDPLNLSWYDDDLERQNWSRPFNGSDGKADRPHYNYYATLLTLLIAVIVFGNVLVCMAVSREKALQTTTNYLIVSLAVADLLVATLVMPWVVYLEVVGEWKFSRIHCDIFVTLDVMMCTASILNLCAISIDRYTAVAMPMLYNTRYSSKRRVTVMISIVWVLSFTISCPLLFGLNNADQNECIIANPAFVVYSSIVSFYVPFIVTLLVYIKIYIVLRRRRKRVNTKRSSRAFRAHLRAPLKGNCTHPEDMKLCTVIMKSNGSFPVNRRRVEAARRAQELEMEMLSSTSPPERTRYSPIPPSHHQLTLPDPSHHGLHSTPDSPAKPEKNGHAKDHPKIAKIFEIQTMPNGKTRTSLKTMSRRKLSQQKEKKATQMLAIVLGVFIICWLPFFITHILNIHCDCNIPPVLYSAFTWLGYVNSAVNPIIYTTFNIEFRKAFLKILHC
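PathHunter beta-arrestin assay in DiscoveRx D2 cells. Compounds were added with an EC20 of dopamine (50 nM final) for 90 min at 37 deg C. Luminescence was read 1 h after detection reagent, with 57 uM dopamine as the EC100 control.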
CtBP-E1A inh = blocks the CtBP interaction with E1A. AlphaScreen GST-E1A/His-CtBP binding, 1536-well; active compounds read low; control for the full effect not named in the record. activity change, % (test concentration not listed). hit rate 0.49% among 340,000. AID 651724; in the data active means activity change below about -65%; inconclusive means about -30% to -65%; inactive means above about -30%; note: % is set by controls: 0 for no effect and ±100 for the full control effect
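Steps: dispense buffer (Tris pH 8.0, NaCl 300 mM, TCEP 1 mM, BSA, Tween 20); add 5X protein mix (GST-E1A, His-CtBP, 125 nM each); pin 23 nL compound; 2 h at 37 °C, dark; add 5X beads (50 ug/mL); 1 h; read.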
TRPML1 inh = human mucolipin-1 channel inhibition; Q9GZU1; TRPML1-inducible cells, Ca2+ dye fluorescence, FDSS; active compounds read low; inhibition of EC80 agonist-evoked calcium signal; activity change, negative = inhibition, % (test concentration not listed); hit rate 0.02% among 390,000; in the data active means activity change below about -50%; inconclusive means about -30% to -50%; inactive means above about -30%;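 note: stimulus is agonist 54-4 at its EC80 concentration; % is set by controls: 0 for no effect and ±100 for the full control effect; compound concentration not given in the record; the text of the record puts the active cut at -80%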
Target sequence (Q9GZU1 whole entry, looked up): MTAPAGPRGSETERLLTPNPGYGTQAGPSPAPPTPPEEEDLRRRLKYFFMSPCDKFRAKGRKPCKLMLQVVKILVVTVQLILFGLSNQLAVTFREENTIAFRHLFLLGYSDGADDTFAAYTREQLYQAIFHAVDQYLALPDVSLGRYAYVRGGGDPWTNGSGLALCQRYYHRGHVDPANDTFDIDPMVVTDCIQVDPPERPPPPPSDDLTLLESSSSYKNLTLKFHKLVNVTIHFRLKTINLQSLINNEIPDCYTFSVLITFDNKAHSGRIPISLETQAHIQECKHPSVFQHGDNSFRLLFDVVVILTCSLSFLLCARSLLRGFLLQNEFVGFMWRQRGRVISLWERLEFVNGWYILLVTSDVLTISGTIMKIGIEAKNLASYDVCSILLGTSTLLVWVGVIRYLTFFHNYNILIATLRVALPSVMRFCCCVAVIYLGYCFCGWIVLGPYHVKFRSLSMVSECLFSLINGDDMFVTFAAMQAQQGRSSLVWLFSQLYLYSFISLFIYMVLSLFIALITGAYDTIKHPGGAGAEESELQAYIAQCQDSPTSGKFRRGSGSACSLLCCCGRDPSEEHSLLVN
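Calcium fluorescence in TRPML1-DL cells induced overnight with Tet: a 110 s read after compound pin addition, then a 110 s antagonist read after challenge with 54-4 at 4 uM final (EC80).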
Six1-Eya2 inh = Six1/Eya2 interaction inhibition; Q15475+O00167; AlphaScreen GST-Six1/His-Eya2 binding, biochemical; active compounds read low; control for the full effect not named in the record; activity change, % (test concentration not listed); hit rate 0.56% among 360,000; in the data active = activity change below about -65%; inconclusive = about -30% to -65%; inactive = above about -30%; note: % is set by controls: 0 for no effect and ±100 for the full control effect
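Homogeneous AlphaScreen proximity assay pairing GST-Six1 with His-tagged Eya2 (added as 5X mix: 250 nM and 500 nM) in 50 mM Tris pH 8.0, 300 mM NaCl, 1 mM TCEP. Glutathione donor and nickel acceptor beads; 1 h, 37 °C, dark.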
TRPML1 agonist = agonists of human TRPML1 channel; AID 624414; hit rate 0.12% among 410,000; activation, % (test concentration not listed); Q9GZU1; TRPML1-expressing cells, Ca2+ dye fluorescence, FDSS; host cell line not named in the record; reference of the full effect not given here; in the data active = activation above about 50%; inconclusive = about 30% to 50%; inactive = below about 30%; note: 0% is about no effect; the text of the record puts the active cut at 80%
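Calcium fluorescence on an FDSS kinetic reader gave the read-out. Tet-induced TRPML1-DL cells were plated overnight, dye-loaded (Ca8 with quencher, 45-90 min, room temperature, dark), then read 110 s after compound addition, and again 110 s after 4uM final 54-4 (EC80).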
An asterisk follows results filed as active; u = inconclusive; x = not tested or not shown.

SMILES | TRPV1 potentiator | D2 potentiator | CtBP-E1A inh | TRPML1 inh | Six1-Eya2 inh | TRPML1 agonist
Cc1cc2nc(NCCCO)n(CC(=O)c3cc(C(C)(C)C)c(O)c(C(C)(C)C)c3)c2cc1C | -1 | -46 | 2 | 22 | 9 | 0.2
Cc1ccc(CNc2c(C=O)c(=O)[nH]c3ccccc23)cc1 | 27 | -10 | 9 | 9 | 5 | 0.8
CNC(=O)CN(c1cc(OCCOC)c(Cl)cc1Cl)S(=O)(=O)c1ccc(OC)cc1 | 8 | -2 | 7 | 9 | -2 | -0.5
COc1cccc(C(=O)NCc2n[nH]c(=S)n2-c2cccc(C)c2)c1 | -2 | -10 | -5 | -20 | -2 | 0.3
C=CCn1c(SC(C)C(=O)NCc2ccc3c(c2)OCO3)nnc1C1CCCCC1 (stereo not given) | 8 | -5 | 14 | -2 | -2 | -0.2
COc1ccc(/C=N\NC(=O)c2ccc(-c3ccccc3)cc2)c(OC)c1OC | -1 | -5 | 0 | 0 | 3 | 1.6
Cc1onc(-c2c(F)cccc2Cl)c1C(=O)OCC(=O)NC(c1ccccc1)c1ccccc1 | 2 | -4 | 7 | 14 | -1 | 1.1
Cc1ccc(-c2nc(CN3CCN(c4cnccn4)CC3)c(C)o2)o1 | 6 | -6 | -4 | 7 | 0 | -1.2
CCOc1ccccc1Nc1nc(N)nc(CN2CCCCC2C)n1 (stereo not given) | -9 | -8 | -4 | 3 | 3 | 0.1
CC(C)Sc1nnc(NC(=O)c2ccco2)s1 | -7 | 0 | 9 | 6 | 4 | -0.5
CCCCN(CCCC)Cc1ccc(C(=O)NN)o1 | -18 | -8 | x | 2 | -2 | 0.1
COc1ccc(CN2CCN(C(=O)c3cccnc3)CC2)cc1Br | 12 | -20 | 9 | -4 | 0 | 1.3
COc1ccc(C2=NOC(C(=O)O)C2)cc1 (stereo not given) | 4 | -15 | 13 | 17 | 6 | 0.0
COc1ccc2cc(Br)ccc2c1CC(=O)NC(C)(C)C | -22 | -7 | 3 | -12 | 3 | 0.8
COCCCNCC(O)COc1cccc2[nH]c(C)cc12 (stereo not given) | 1 | -5 | 1 | 1 | -4 | 0.5
Cn1c(CNC(=O)c2cccs2)nnc1SCC(=O)Nc1ccccc1 | 8 | -22 | -2 | -7 | 0 | 0.3
CCCNC(=O)C1CCN(S(=O)(=O)c2ccc3c(c2)OCCO3)CC1 | 5 | 8 | 6 | 4 | -2 | -0.6
COc1ccc(CC(=O)n2[nH]c(=O)c3ccccc3c2=O)cc1OC | 2 | -7 | -6 | 34 | 0 | 1.9
CC(=O)Nc1ccc(C(=O)COC(=O)C2CC3CCCC(C2)C3=O)cc1 (stereo not given) | -4 | -5 | 3 | 17 | -2 | -0.5
CN1CCN(C(=O)CCc2ccc(S(=O)(=O)NC3CCCCC3)cc2)CC1 | -3 | 0 | 8 | 10 | -21 | 0.0
Cc1ccc2nc(-c3ccco3)c(CC3CCCCC3)n2c1 | x | -11 | -6 | 12 | -10 | -0.7
COc1ccccc1NC(=O)c1cnc(SCC(=O)NCCc2ccccc2)n(C)c1=O | 25 | 2 | 6 | -13 | 2 | -0.3
COc1ccc(Cl)cc1C(=O)Nc1cccnc1Cl | 3 | -1 | -4 | 7 | -17 | 2.8
Cc1ccc(S(=O)(=O)NCCCCCC(=O)Nc2c(C)n(C)n(-c3ccccc3)c2=O)cc1 | -7 | -4 | x | 31 | 0 | 1.0
COc1ccc(C2(C(=O)NCCCN(C)C)CCOCC2)cc1 | -3 | -4 | 4 | 3 | 9 | -0.3

Remaining list, next part.
SMILES | TRPV1 potentiator | D2 potentiator | CtBP-E1A inh | TRPML1 inh | Six1-Eya2 inh | TRPML1 agonist
O=C(NNC(=S)Nc1ccccc1C(F)(F)F)C1CC1 | -4 | -3 | 8 | 5 | 0 | -0.1
CCCCN(C)S(=O)(=O)c1ccc(C(=O)Nc2nnc(C3=COCCO3)o2)cc1 | -12 | -10 | -17 | 8 | -2 | 2.7
COc1ccc(/C=N/N(C(C)=O)c2nc(-c3ccc(C)cc3)cs2)cc1 | 19 | 18 | 5 | 1 | 0 | -0.6
Cc1ccc(OCC(=O)N2CCCCCC2)c(C)c1 | -9 | -3 | 3 | 7 | 3 | 2.0
CN(C)S(=O)(=O)c1ccc(/C(O)=C2/C(=O)C(=O)N(Cc3cccnc3)C2c2ccncc2)cc1 (stereo not given) | -6 | -4 | -5 | 2 | 7 | 1.4
O=C1C(Cl)=C(NCCc2ccccc2)C(=O)N1CCc1ccccc1 | -5 | -22 | 50 | -2 | 49 | 0.0
O=C(CN1C(=O)c2ccccc2S1(=O)=O)NCCSC1CCCCC1 | -7 | -3 | 0 | 3 | 10 | 0.8
CSCCC(NC(=O)COc1ccccc1)C(=O)OCC(=O)c1ccccc1 (stereo not given) | 9 | 7 | 7 | -12 | -3 | 1.6
COC(=O)C1(CC2CC(c3ccccc3)=NO2)CCN(C(=O)OC(C)(C)C)CC1 (stereo not given) | x | -12 | x | -10 | 4 | 0.6
COc1ccc(NC(=O)CSc2nc3ccccc3nc2N2CCCC2)cc1Cl | 19 | -7 | 27 | -10 | 11 | 0.5
CCOc1ccc2ccccc2c1CNCCCN1CCOCC1 | x | -37 | 2 | -1 | 5 | -0.5
C#CCOCCOCCOCCNc1nc(N2CCN(C(=O)[C@H](Cc3ccc(O)cc3)n3cc([C@@H](N)C(C)CC)nn3)CC2)nc(N2CCN(C(=O)[C@H](CCCCN)n3cc([C@@H](N)CO)nn3)CC2)n1 (stereo not given in full) | 6 | -12 | u | -13 | -25 | -0.9
COCCn1c(-c2ccc(C#N)cc2)nc2c1c(=O)[nH]c(=O)n2Cc1ccccc1 | 0 | -5 | 10 | 26 | -3 | 0.4
Cc1ccc(-c2csc(NCCn3c(C(F)(F)F)nc4ccccc43)n2)cc1 | 0 | -9 | -8 | -11 | -4 | -0.5
NC(=O)c1cccnc1Oc1ccc(Cl)cc1Cl | 0 | -1 | -19 | 0 | -13 | 0.9
CCN1C(=O)[C@H]2[C@H]3CN=C(SCc4ccc(Cl)cc4)N3[C@@](CC)(C(=O)OC)[C@H]2C1=O | x | -7 | -1 | 14 | 5 | 0.7
CC1(C)CC(C)(O)P(=O)(c2ccccc2)O1 (stereo not given) | 20 | 0 | -5 | 16 | 4 | 0.1
COCCn1c(C)cc(C(=O)COc2nc3ccccc3nc2C)c1C | 11 | 10 | -3 | 3 | 5 | -0.8
O=C1CC(c2nc3ccccc3[nH]2)CN1c1cccc(C(F)(F)F)c1 (stereo not given) | -19 | -8 | 2 | 7 | -2 | -0.7
FC(F)(F)c1ccc(N2CCN(c3ncnc4c3nnn4Cc3ccccc3)CC2)nc1 | -5 | -7 | 8 | 10 | -1 | 0.5
Cc1ccc(C2NC(=O)c3ccccc3O2)cc1 (stereo not given) | 0 | 9 | x | x | -2 | x
O=C(N/N=C/c1ccccn1)c1ccncc1 | 5 | -12 | x | -2 | -75* | 0.2
Cc1cccc(C=Nc2ccc3c(c2)oc2ccccc23)c1O | -6 | -28 | 3 | -4 | -11 | 1.7
CN1CCN(Cc2nc(Cc3cccc(F)c3)no2)CC1c1ccccc1 (stereo not given) | -17 | -3 | -2 | 7 | 0 | -0.3
CCn1c(=O)[nH]c2ccccc2c1=O | -18 | -7 | -1 | 31 | -3 | 0.5

Next part:
SMILES | TRPV1 potentiator | D2 potentiator | CtBP-E1A inh | TRPML1 inh | Six1-Eya2 inh | TRPML1 agonist
COc1ccc(-c2[nH]c3ccccc3c2SCCNC(=O)c2ccccc2)cc1 | 13 | -6 | -6 | -11 | -4 | 0.2
CC1(C)Cc2c(sc(NC(=O)c3ccc4c(c3)OCCO4)c2C(N)=O)C(C)(C)N1 | -5 | 8 | -4 | 10 | -3 | 0.4
O=S(=O)(c1cccs1)N1CCN(CCc2ccccc2)CC1 | 3 | -22 | -9 | -13 | 1 | 0.2
CC(C)NC(=O)C(OC(=O)c1ccccc1)C(OC(=O)c1ccccc1)C(=O)O (stereo not given) | -2 | -4 | 8 | 3 | 9 | -0.2
CS/C(=N\S(=O)(=O)c1cccs1)Nc1ccc(F)c(Cl)c1 | 16 | -11 | 5 | -27 | 17 | 2.0
CCNC(=O)COC(=O)c1ccc(-n2nc(C)cc2C)cc1 | 7 | -6 | 0 | 32 | 9 | -0.2
CC(C)c1ccc(N2C(=O)C(Cl)=C(N3CCOCC3)C2=O)cc1 | -12 | -1 | 0 | -13 | 0 | -0.8
Cc1ccsc1C(=O)OCc1nnc(-c2ccccc2)o1 | x | -8 | 9 | 18 | 10 | 0.2
CC1(C)CC(CCC(=O)NC(=S)Nc2ccccc2Cl)C(=O)O1 (stereo not given) | -3 | -3 | x | -10 | -7 | 0.7
CC(CN1CCN(C)CC1)OC(=O)c1ccccc1Cl (stereo not given) | 0 | -11 | 0 | 4 | 7 | -0.3
COc1ccc(OCCC(=O)NCc2ccccc2)cc1 | 0 | -8 | 2 | -8 | -2 | 0.6
O=C(/C(=N\Nc1ccccc1)Sc1nnnn1-c1ccccc1)c1ccccc1 | -6 | -16 | 5 | 4 | -21 | 0.3
CC/C(=N\NC(=O)Nc1nonc1N)c1ccc(OC)c(OC)c1 | 10 | 0 | -12 | 42 | -8 | 2.2
O=C(N1CCOCC1)N1CCc2ccccc21 | 17 | -5 | -5 | 13 | -21 | 0.3
CCc1nnc(NC(=O)CSc2nnc(-c3cc4ccccc4cc3O)n2CCOC)s1 | 11 | -8 | -10 | -5 | -4 | 3.3
COc1ccc(C2C(C#N)=C(N)Oc3c2ccc2cccnc32)cc1OC (stereo not given) | 3 | -7 | u | -20 | u | 1.6
Cc1oc(-c2ccccc2Cl)nc1CS(=O)CC(=O)NCc1cccs1 (stereo not given) | x | -3 | 2 | 26 | 0 | -0.1
COC(=O)c1cccc(NS(=O)(=O)c2ccc(NC(C)=O)cc2)c1C | 30 | -11 | 4 | 14 | 3 | 0.0
O=C(Cc1ccccc1F)OCC(=O)N1CCN(C(=O)c2ccco2)CC1 | 14 | -6 | -5 | 32 | 0 | 0.1
C=CCn1c(SCCN2CCCC2)nc2c([nH]c3ccccc32)c1=O | -11 | -17 | 2 | 4 | -1 | -0.6

Six1-Eya2 inh: hit marks shown above
mol	D2 potentiator	CtBP-E1A inh	TRPML1 inh	Six1-Eya2 inh
O=C(N/N=C/c1ccccn1)c1ccncc1	-12	x	-2	-75*

Molecules shown so far with a thiophene ring, fused or not:
SMILES | TRPV1 potentiator | D2 potentiator | CtBP-E1A inh | TRPML1 inh | Six1-Eya2 inh | TRPML1 agonist
Cn1c(CNC(=O)c2cccs2)nnc1SCC(=O)Nc1ccccc1 | 8 | -22 | -2 | -7 | 0 | 0.3
CC1(C)Cc2c(sc(NC(=O)c3ccc4c(c3)OCCO4)c2C(N)=O)C(C)(C)N1 | -5 | 8 | -4 | 10 | -3 | 0.4
O=S(=O)(c1cccs1)N1CCN(CCc2ccccc2)CC1 | 3 | -22 | -9 | -13 | 1 | 0.2
CS/C(=N\S(=O)(=O)c1cccs1)Nc1ccc(F)c(Cl)c1 | 16 | -11 | 5 | -27 | 17 | 2.0
Cc1ccsc1C(=O)OCc1nnc(-c2ccccc2)o1 | x | -8 | 9 | 18 | 10 | 0.2
Cc1oc(-c2ccccc2Cl)nc1CS(=O)CC(=O)NCc1cccs1 (stereo not given) | x | -3 | 2 | 26 | 0 | -0.1

Screens: PubChem BioAssay, National Center for Advancing Translational Sciences (NCATS)
